Screening results (PubChem)
TRPV1 potentiator: potentiators of human vanilloid receptor 1 (TRPV1); Q8NER1; TRPV1-expressing cells, Fluo-8 calcium influx, capsaicin EC20 potentiation; host cell line not named in the record; control for the full effect not named in the record; potentiation, % at 8.33 µM; actives 0.02% (n = 320,000); AID 540277; active means potentiation above 80%; inconclusive means 30% to 80%; inactive means below 30%; also: 0% is about no effect
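Fluo-8 calcium influx in TRPV1-expressing cells, kinetic read (ex 480/em 520 nm). Compound added and read 3 min for agonist activity, followed by capsaicin at EC20 final and 2 min further read for enhancement.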
Sfp inh: inhibitors of Bacillus subtilis Sfp phosphopantetheinyl transferase. Q9F4F7. Biochemical Sfp PPTase activity, qHTS. Potency, µM, inactives show max response, negative = inhibition, hits mostly inhibitors. actives 3.5% (n = 310,000). AID 1490; active = well fitted inhibition curve with a large enough effect; inconclusive = small, poorly fitted or top-dose-only effect, or another doubt; inactive = no such curve, though single readings can be large or run the other way;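 also: the enzyme is Sfp with the accession as filed and its product quenches rhodamine fluorescence; potency is read from the fitted curve at half-maximal effect; 0% = enzyme reaction without inhibitor and -100% = no enzyme wells; top concentration of the series not given in the record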
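Reaction rates are the 30-min fluorescence difference (ex 525, em 598 nm) in wells containing 15 nM Sfp, 5 uM rhodamine-CoA and 12.5 uM BHQ-2-YbbR at pH 7.6 with 10 mM MgCl2.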
Menin MLL FP FL: displaces fluorescein MLL peptide from human menin; Fluorescence polarization, fluorescein-MLL peptide displacement from menin; FP activity change, % at 61.4 µM; 290,000 tested, under 10 active; inconclusive = falling polarisation curve, or a change in total fluorescence; inactive = total fluorescence flat and polarisation flat or rising; no compound was filed as active; the % refers to the polarisation; negative = inhibition;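 also: % of control where 0% means no effect; inhibitors lower the polarisation; unlabelled MLL peptide was the positive control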
gsp ag: activates gsp, the McCune-Albright syndrome mutation | Potency, µM (series often up to 76.9 µM), for the others: top-dose activation (cAMP increase), most hits filed as activators | gsp mutant cells, cAMP HTRF, 30 min; control for the full effect not named in the record | actives 0.13% (n = 340,000) | AID 624287; active = well fitted activation curve with a large enough effect; inconclusive = small, poorly fitted or top-dose-only effect, or another doubt; inactive = no such curve, though single readings can be large or run the other way; cell line not stated here;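 also: phosphodiesterase inhibitor Ro 20-1724 added with compounds to block cAMP breakdown; potency is read from the fitted curve at half-maximal effect; nearly all actives have a fitted effect of over 60% in size; about a fifth of the inactives were tested at one dose only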
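Cells in DMEM/10% FBS with G418 were pretreated with compounds in DMSO plus […] (300 uM stock) for 30 min at 37C. cAMP was measured by HTRF (cAMP-d2 plus anti-cAMP antibody-K) after 30 min at room temperature.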
gsp antagonist: antagonizes gsp, the McCune-Albright syndrome mutation. gsp-mutant cells, cAMP HTRF, 30 min; control for the full effect not named in the record. Potency, µM (highest dose often 76.9 µM), without a hit: top-dose activity change, negative = inhibition, actives largely listed as inhibitors. actives 0.4% (n = 340,000). AID 624288; active = falling curve of any shape with a large fitted effect; inconclusive = falling curve, mostly with a smaller effect; inactive = flat or rising curve; cell line not stated here;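 also: intracellular cAMP measured with PDE inhibitor Ro 20-1724 present during compound exposure; potency is read from the fitted curve at half-maximal effect; % is scaled to controls: 0 for no effect and ±100 for the full control effect; nearly all actives have a fitted effect of over 65% in size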
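G418-selected cells were plated in DMEM/10% FBS for 16-24 h at 37C, then treated with compounds plus the PDE inhibitor […] (300 uM solution added) for 30 min at 37C. Intracellular cAMP was measured by HTRF after 30 min lysis at room temperature.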
ClpP mod: qHTS Assay for Activators of ClpP; actives 1.9% (n = 340,000); ATP-dependent Clp protease proteolytic subunit (Bacillus subtilis (strain 168)), P80244; Potency, µM (highest dose often 57.5 µM), without a hit: top-dose activity change, negative = active; purified B. subtilis ClpP, FRET peptide cleavage, 20 min; active = well fitted falling curve with a large enough effect; inconclusive = small, poorly fitted or top-dose-only effect; inactive = no such curve, though single readings can be large or run the other way; also: potency is read from the fitted curve at half-maximal effect; the source files actives as falling curves though it sought activators and does not explain the sign; nearly all actives have a fitted effect of over 65% in size; many hits overshoot -100%
Target sequence (P80244 whole entry, looked up): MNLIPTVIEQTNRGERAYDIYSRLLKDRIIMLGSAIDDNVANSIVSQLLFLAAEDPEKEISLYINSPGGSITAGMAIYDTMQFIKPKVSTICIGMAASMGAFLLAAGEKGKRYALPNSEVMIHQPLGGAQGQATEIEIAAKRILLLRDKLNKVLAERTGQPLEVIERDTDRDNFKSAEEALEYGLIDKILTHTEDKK
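Purified B. subtilis ClpP, 10 microg/mL final in Tris/HCl pH8 with KCl, BSA, glycerol and Tween-20, cleaved an Abz/nitrotyrosine-quenched decapeptide. Fluorescence (ex 320, em 430) was read at 0 and 20 min at room temperature. Delta was normalized to 5.8 microM ADEP and DMSO/no-enzyme controls.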
D2 potentiator: potentiates the human D2 dopamine receptor allosterically; DiscoveRx D2 beta-arrestin cells, luminescence, 90 min; 100% = 57 uM dopamine signal; potentiation, % (test concentration not listed); actives 0.23% (n = 360,000); active = potentiation of 50% or more; inconclusive = 30% to 50%; inactive = 30% or less;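 also: compound concentration not given in the record; tested on top of an EC20 dose of dopamine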
Target sequence (P14416 whole entry, looked up): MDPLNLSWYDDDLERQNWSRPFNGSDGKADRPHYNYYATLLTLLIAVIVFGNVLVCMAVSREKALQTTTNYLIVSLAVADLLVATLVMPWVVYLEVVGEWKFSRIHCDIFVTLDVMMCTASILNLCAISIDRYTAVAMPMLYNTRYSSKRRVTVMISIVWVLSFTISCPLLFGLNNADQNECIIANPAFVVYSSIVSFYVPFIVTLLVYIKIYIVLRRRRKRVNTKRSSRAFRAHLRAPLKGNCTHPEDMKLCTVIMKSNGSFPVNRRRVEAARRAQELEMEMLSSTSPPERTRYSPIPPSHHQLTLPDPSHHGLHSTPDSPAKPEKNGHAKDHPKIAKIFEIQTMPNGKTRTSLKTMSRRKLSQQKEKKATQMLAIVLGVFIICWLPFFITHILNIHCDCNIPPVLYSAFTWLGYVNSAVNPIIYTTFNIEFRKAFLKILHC
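PathHunter D2 cells, attached overnight at 37 deg C, received compound in DMSO plus dopamine at EC20 (50 nM final) for 90 min at 37 deg C. Beta-arrestin recruitment was read as luminescence after 1 h with detection reagent at ambient temperature.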
* marks the source's active call; other numbers are inactive results; ? = inconclusive; / = no result given; & = joins results of further samples; ! = repeats disagree; [ ] = remark or other dose. Some of the compounds tested, so the mix of outcomes need not match the whole.

SMILES	TRPV1 potentiator	Sfp inh	Menin MLL FP FL	gsp ag	gsp antagonist	ClpP mod	D2 potentiator
O=P(Nc1cccnc1)(Oc1ccccc1)Oc1ccccc1	-12.0	2.0%	5.0	?	0.5%	/	-1.4
CSc1ccc(CN2CCN(c3ccccc3C)CC2)cc1	6.0	-26.6%	-1.5	11.9%[15.4 µM]	9.1%	-2.2%	-15.3
CCCNS(=O)(=O)c1ccc(OCC(=O)N2CCN(C)CC2)cc1	3.2	10.5%	-2.6	-26.7%	-4.9%	0.6%	10.6
CCN(CC)c1ccc(CNc2nc3ccccc3n2C)cc1	3.7	-2.1%	2.5	?	3.4%	-1.5%	-16.3
C=CC[N+]1(C)C2CCC1CC(O)C2 (centres undefined)	-3.8	20.6%	-1.5	2.1%	-0.9%	-0.4%	-9.2
CC(C)c1ccc(N2C(=O)NC(=O)/C(=C/C=C/c3ccco3)C2=O)cc1	11.3	-11.9%	?	7.2%	-6.6%	-11.0%	-5.0
Cc1c(NC(=O)C(C)OC(=O)Cc2ccccc2)c(=O)n(-c2ccccc2)n1C (centres undefined)	5.6	1.8%	5.3	?	12.7%	-0.2%	-6.3
O=C(C1CCN(c2nc3ccc(Br)cc3s2)CC1)N1CCC2(CC1)OCCO2	/	0.9%	4.3	-53.3%[inhibitor]	-9.0%	-3.1%	6.0
CC1=NN=C(c2ccc(N)cc2)c2cc3c(cc2C1)OCO3	-13.4	-13.3%	?	/	-19.6%	-4.1%&-2.7%	27.7
CCOC(=O)C1(CCc2ccccc2)CCN(Cc2ccco2)CC1	?	-10.9%	0.6	6.8%[15.4 µM]	10.3%	/	-19.0
COc1ccccc1N(CC(=O)NC1CCCCC1)C(=O)c1cnn(C(C)C)c1	-6.4	14.2%	2.6	-23.9%	5.5%	-2.1%	-4.7
CC1(C)C2SCC(=O)N2CCN1CC(=O)NN (centres undefined)	26.6	21.8%	?	-11.9%[15.4 µM]	-0.2%	/	-2.9
COC(=O)C1=C(c2cccc(C#N)c2)C[C@@H]2CC[C@H]1N2C(=O)N1CCCC1	-13.1	/	/	/	2.2%	0.3%	-2.8
CC(=O)OC1N=C(c2ccccc2)c2ccccc2NC1=O (centres undefined)	-3.7	0.0%	4.7	?	0.8%	1.0%	-14.7
C[C@]12C=CC(=O)C=C1CC[C@@H]1[C@@H]2CC[C@]2(C)C(=O)CC[C@@H]12	/	/	/	/	-7.5%	1.3%	-5.5
O=c1c(O)c(-c2ccc(O)c(O)c2)oc2cc(O)cc(O)c12	9.4	56.2µM*!	?	/	1.9%	1.4%&0.4%	17.1
COc1ccc(C(O)C(C)NC(C)C(O)c2ccc(OC)cc2)cc1 (centres undefined)	/	/	/	25.5%	1.2%	1.4%	-6.4
Cc1ccc(NC(=O)CCNC(=O)N2C[C@H]3C[C@@H](C2)c2cccc(=O)n2C3)c(C)c1	-2.0	13.2%	3.6	/	9.5%	-10.0%	-2.9
COC(=O)C1=C(c2ccc(F)cc2F)C[C@@H]2CC[C@H]1N2C(=O)N1CCOCC1	-11.4	/	/	7.0%	7.3%	-1.2%	-4.0
Cc1cccc(NP(C)(=O)c2nc3c(s2)CCCC3)c1 (centres undefined)	5.4	?	-1.2	-30.0%	9.3%	/	-1.7

Brought forward from above: 4 compounds, followed by the next part.
SMILES	TRPV1 potentiator	Sfp inh	Menin MLL FP FL	gsp ag	gsp antagonist	ClpP mod	D2 potentiator
COc1ccc(C(O)C(C)NC(C)C(O)c2ccc(OC)cc2)cc1 (centres undefined)	/	/	/	25.5%	1.2%	1.4%	-6.4
Cc1ccc(NC(=O)CCNC(=O)N2C[C@H]3C[C@@H](C2)c2cccc(=O)n2C3)c(C)c1	-2.0	13.2%	3.6	/	9.5%	-10.0%	-2.9
COC(=O)C1=C(c2ccc(F)cc2F)C[C@@H]2CC[C@H]1N2C(=O)N1CCOCC1	-11.4	/	/	7.0%	7.3%	-1.2%	-4.0
Cc1cccc(NP(C)(=O)c2nc3c(s2)CCCC3)c1 (centres undefined)	5.4	?	-1.2	-30.0%	9.3%	/	-1.7
CCOc1ccccc1-n1c(O)c(C=NCc2ccc3c(c2)OCO3)c(=O)[nH]c1=O	0.2	9.3%	1.7	-14.3%	4.8%	1.2%	-16.2
CN(C)C(Cc1ccc(C#N)cc1)C(=O)c1ccccc1 (centres undefined)	-2.8	13.8%	?	-3.3%[15.4 µM]	19.8%	-1.4%	-10.9
c1ccc(CN2Cc3ccccc3-n3nncc3C2)cc1	/	/	/	-36.2%	/	-4.1%	-6.6
CC(Cl)(Cl)/C(=N/P(=S)(N1CCOCC1)N1CCOCC1)N1CCOCC1	-10.7	20.3%	-2.0	7.3%	2.7%	0.9%	0.5
Cc1c(C(=O)N2CCC3(CC2)OCCO3)sc2ncnc(N3CCN(c4ccccn4)CC3)c12	0.1	-1.0%	0.0	-0.5%	-6.1%	-0.5%	-13.4
O=c1cccc2n1CC1CC2CN(S(=O)(=O)c2ccc(F)cc2)C1 (centres undefined)	9.1	11.9%	2.7	-9.6%[15.4 µM]	4.0%	/	0.9
CN1CCN(C(=O)COc2ccc3ccccc3c2Br)CC1	-8.7	9.2%	-0.3	?	3.7%	1.0%	-15.5
Clc1ccccc1CN1CCN(c2ccccc2)CC1	1.9	-10.8%	-0.8	-5.2%	-2.0%	1.5%	6.8
COC(=O)C1C2c3ccccc3C(c3ccccc32)C1C(=O)OC (centres undefined)	-0.5	1.0%	0.5	-0.2%[15.4 µM]	4.8%	-0.2%	-2.0
O=c1c2ccccc2nc(/C=C/c2ccc3c(c2)OCO3)n1-c1ccccc1	2.5	-28.9%	?	-10.6%[15.4 µM]	-0.7%	8.6%	-13.0
C[C@H](NC(=O)N1C[C@H]2C[C@@H](C1)c1cccc(=O)n1C2)C(=O)Nc1cccc(F)c1	-1.0	11.4%	-0.2	/	5.1%	-7.9%	7.3
Cc1ccc(NP(=O)(Nc2ccc(C)cc2)Oc2ccccc2)cc1	-16.1	2.3%	5.4	5.9%	0.1%	/	-0.7
O=C1CCCC2C3CCCN4CCCC(CN12)C34 (centres undefined)	5.2	8.5%	8.4	/	10.9%	-0.6%	-8.8
Cn1ncnc2c(=O)n(C)c(=O)nc1-2	9.7	?	1.0	-8.8%	-9.5%	0.8%	11.2
COc1ccccc1CNCC(=O)Nc1cc(S(=O)(=O)N2CCCCC2)ccc1C	/	/	/	-7.2%[15.4 µM]	-13.6%	8.91µM*	-8.5
C[C@]12CCC3C(CC[C@H]4C[C@@H](O)CC[C@]34C)C1C[C@@H](Br)[C@@H]2O (some centres undefined)	/	/	/	-23.2%	12.8%	/	-3.0
CCCC(=O)Nc1ccc(N2CCN(CC)CC2)c(Cl)c1	-50.3	4.0%	0.2	-28.8%	6.2%	2.0%	-2.1
C/C(=N\N1CCCCCC1)c1c(O)n(-c2ccc(C)cc2)c(=O)[nH]c1=O	-17.5	19.9%	4.5	16.9%[15.4 µM]	-9.1%	/	-5.6
c1cc2c(cc1CCNC1C3CC4CC(C3)CC1C4)OCO2 (centres undefined)	-1.7	-5.4%	-3.9	-36.3%[inhibitor]	3.4%	2.9%	-9.5
CC1CN1P1(=O)OCC(C)([N+](=O)[O-])CO1 (centres undefined)	/	/	/	-15.1%	3.7%	-4.1%	10.3
COc1nc(NC(C)C)nc(NC(C)C)n1	20.1	3.2%&15.4%	-1.6&0.9	11.6%	8.7%	0.7%	-6.2
O=[N+]([O-])/C=C/c1c(OCc2ccccc2)ccc2ccccc12	4.7	?	-0.6	/	/	/	/
CCOC(=O)Cn1cc(C=C2C(=O)N(C)C(=O)N(C)C2=O)c2ccccc21	-10.9	-12.1%	?	15.2%[15.4 µM]	-8.2%	/	-9.7
O=C1NC2C(=CC(O)C(O)C2O)c2cc3c(c(O)c21)OCO3 (centres undefined)	/	/	/	8.5%	13.7%	-3.0%	-14.6
Cc1ccc2occ(CN3CC4CC(C3)c3cccc(=O)n3C4)c(=O)c2c1 (centres undefined)	5.5	2.3%	6.8	-18.8%	0.6%	2.5%	-15.0
CN1CCC(c2c[nH]c3ccc(O)cc23)CC1	/	20.6%&3.4%	4.3&6.2	/	?	-8.3%	-24.0
CC(=NCCCN1CCOCC1)c1c(O)[nH]c(=O)[nH]c1=O	-0.3	20.6%	6.7	24.9%	0.4%	0.8%	-4.9
COc1ccccc1-n1c(O)c(/C=N/N2CCCCC2)c(=O)n(-c2ccccc2OC)c1=S	4.1	-9.6%	2.4	-3.3%[15.4 µM]	-11.4%	/	0.1
CC(C)OC12Oc3ccccc3C=C1N1CCC2CC1 (centres undefined)	6.4	2.1%	-1.8	-36.5%[inhibitor]	12.0%	-2.2%	1.5
C[C@@H]1CN(C2CCC(C#N)(c3ccc(F)cc3)CC2)CC[C@]1(C(=O)O)c1ccccc1 (some centres undefined)	-0.3	/	/	/	3.6%	1.4%	-27.3
C[N+]1=C(/C=C/Nc2ccccc2)C(C)(C)c2ccccc21	-4.3	?	3.6	-3.2%	4.6%	-0.8%	-23.2
COc1ccc(OC)c(CN2CCN(C(=O)COc3cccc(C)c3)CC2)c1	-3.0	?	0.7	-0.7%	2.1%	-0.3%	-16.9

Copied from the list:
Result for CC1=NN=C(c2ccc(N)cc2)c2cc3c(cc2C1)OCO3 in gsp antagonist: -19.6%
Result for CN(C)C(Cc1ccc(C#N)cc1)C(=O)c1ccccc1 (centres undefined) in ClpP mod: -1.4%

Retrieved one by one from the entries so far (2):
SMILES	TRPV1 potentiator	Sfp inh	Menin MLL FP FL	gsp ag	gsp antagonist	ClpP mod	D2 potentiator
CC1CN1P1(=O)OCC(C)([N+](=O)[O-])CO1 (centres undefined)	/	/	/	-15.1%	3.7%	-4.1%	10.3
Cn1ncnc2c(=O)n(C)c(=O)nc1-2	9.7	?	1.0	-8.8%	-9.5%	0.8%	11.2
